Source: PubChem (several laboratories)
Bfl-1 A1 inh = inhibitors of the anti-apoptotic protein A1, read as caspase activation | MEF A1-2A-BIM cells, Caspase-Glo 3/7 luminescence, 3 h; percent of clofoctol response, vehicle zero | caspase activation, % (no concentration beside the values) | 0.066% of 330,000 active | AID 2462;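 active means over half of replicate activation scores above 10%, or exactly half above 10 with the replicate mean above 10; inconclusive means replicate mean below 10 yet half the replicates above 10; inactive means over half of replicates below 10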;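 further: wells of about 30 µL received 50 nL stock; many hits fall short of the cut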
Beta cell apopt = beta cell apoptosis inhibition; INS-1E cytokine-induced death, ATP luminescence, 48 h; percent of positive-control rescue, neutral wells zero; protection from apoptosis, % (no concentration beside the values); 0.8% of 300,000 active; AID 435005;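 active means all replicates at 75% or more, or half of them and the mean; inconclusive means half reach 75% but not the mean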;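 further: 0% = cytokine-treated negative control wells and 100% = positive control rescue; higher means more ATP so stronger rescue from cytokine killing; wells of about 40 µL received 100 nL stock; the first replicate is given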
T cruzi repl = T. cruzi replication inhibition | inhibition, % (test concentration not listed) | 1.4% of 300,000 active | AID 1885 | T. cruzi beta-gal in NIH3T3, luminescence, 90 h;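 active means mean inhibition across valid replicates above about 55%, limit read from the data; inconclusive means mean below that limit but half or more replicates reach it; inactive means mean below it, under half of replicates reach it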;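 further: signal also drops with host cell toxicity which is not excluded here; 0% = plate median of DMSO wells and 100% = zero luminescence signal; higher percent means less beta-gal luminescence so fewer parasites; stock transfer was 50 nL into about 50 µL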
Ecoli rRNA inh = inhibits bacterial ribosomal RNA function over humanized ribosomes; E. coli WT GFP vs humanized-ribosome RFP mutants, fluorescence, 24 h; hits give low values; DMSO median 0, no signal -100; GFP signal change (wild-type ribosome), % (concentration not given with the values); 1.6% of 350,000 active;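 active means significant combined selectivity score with lowered wild-type GFP, culture density cut under 30%, mutant RFP and density less affected; inactive means any of these conditions unmet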; further: one replicate is shown; some compounds called inactive have numbers as strong as hits
RanGTP-Imp inh = inhibitors of RanGTP-importin-beta interaction, primary screen, biochemical, FRET, CFP-Ran, YFP-importin-beta, homogeneous | cell-free CFP-Ran/YFP-importin-beta FRET ratio | inhibition, % (no concentration beside the values) | 1.1% of 300,000 active;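 active means most replicates above 15%; inconclusive means exactly half above 15%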;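 further: 0% = DMSO wells and 100% = Ran loaded with GDP instead of GTP; wells of about 40 µL received 100 nL stock; the first replicate is given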
Calb FLC = affects C. albicans growth with fluconazole | C. albicans CaCi-2 (fluconazole-resistant clinical isolate) + fluconazole, Alamar Blue growth, 48 h | growth inhibition, % (no concentration beside the values) | 0.57% of 300,000 active;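 active means most replicates above 75%; inconclusive means exactly half above 75%; inactive means most below 75%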;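 further: all wells also contain fluconazole at 8 µg/ml as a sub-toxic cotreatment; 0% = median of DMSO wells and 100% = median of geldanamycin control wells; wells of about 8 µL received 7.5 nL stock; the first replicate is given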
Vif TR-FRET = inhibitors of Vif binding to APOBEC3G peptide, primary screen, biochemical, TR-FRET, GST-Vif 1-94, biotin-A3G peptide, dose response retest (AID 1117319). TR-FRET GST-Vif / biotin-A3G peptide binding; higher % means a stronger effect; test concentration not given here; strong numbers were not always called active. inhibition, %; hits with a dose series show IC50 in µM. 0.57% of 260,000 active;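 active means above the screen mean plus three standard deviations and confirmed in dose response; inconclusive means results disagree or hit not tested in dose response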;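 further: Vif residues 1-94 fused to GST binding biotinylated APOBEC3G peptide 110-148; 0% = full assay without inhibitor and 100% = GST in place of GST-Vif; retest series ran down from 100 µM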
MLL AF4-AF9 inh = inhibitors of human MLL-AF4/AF9 interaction | P42568 | AlphaScreen, biotin-AF4 peptide binding to FLAG-AF9 | inhibition, % at 10 µM | 0.47% of 350,000 active | AID 651704;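 active means every replicate reaching a set inhibition limit, whatever the replicate mean, cut at about 25% in these data; inconclusive means mean inhibition reaches that limit but some replicates miss it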;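 further: 0% = plate neutral control median and 100% = total signal loss; the record names both 10 and 1 µM as test concentration; the first replicate is given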
Target sequence (P42568 whole entry, looked up): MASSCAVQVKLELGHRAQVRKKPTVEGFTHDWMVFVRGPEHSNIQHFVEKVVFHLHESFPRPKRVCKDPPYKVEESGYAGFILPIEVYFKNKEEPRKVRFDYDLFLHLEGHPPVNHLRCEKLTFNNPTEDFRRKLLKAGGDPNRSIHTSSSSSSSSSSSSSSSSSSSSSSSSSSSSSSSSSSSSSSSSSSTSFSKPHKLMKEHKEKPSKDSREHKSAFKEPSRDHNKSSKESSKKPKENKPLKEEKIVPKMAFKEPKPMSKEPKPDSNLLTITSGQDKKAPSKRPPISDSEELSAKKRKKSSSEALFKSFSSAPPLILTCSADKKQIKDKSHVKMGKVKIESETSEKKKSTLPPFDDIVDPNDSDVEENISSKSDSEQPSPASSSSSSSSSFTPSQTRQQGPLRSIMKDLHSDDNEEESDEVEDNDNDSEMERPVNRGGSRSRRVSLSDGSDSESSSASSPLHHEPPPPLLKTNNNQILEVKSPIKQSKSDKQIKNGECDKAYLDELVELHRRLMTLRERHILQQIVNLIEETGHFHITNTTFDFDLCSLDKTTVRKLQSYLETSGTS
Ecoli rRNA inh OD600 = also measured in Ecoli rRNA inh; calls as there; OD600 change, %; measured here: OD600 growth;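 optical density of the mix in the first replicate; 0 = DMSO median and -100 = no signal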
Ecoli rRNA inh RFP = recorded beside Ecoli rRNA inh, whose call it bears; RFP signal change, %; measured here: RFP humanized mutant strains;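 first replicate; 0 = DMSO median and -100 = no signal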
* hit, by the source's call; ? = inconclusive; nt = no result given.

No.	structure	Bfl-1 A1 inh	Beta cell apopt	T cruzi repl	Ecoli rRNA inh	Ecoli rRNA inh OD600	Ecoli rRNA inh RFP	RanGTP-Imp inh	Calb FLC	Vif TR-FRET	MLL AF4-AF9 inh
1	N#Cc1cc([N+](=O)[O-])ccc1NCCc1ccccn1	0.7	-4	1	3	-1	1.6	4.9	15	0%	-7.0
2	CCOC(=O)c1sc(NC(=S)NC(=O)C2CCCC2)cc1C	-0.2	1	32	nt	nt	nt	-1.6	-1	nt	nt
3	O=C(NC1CCCC1)C(c1ccc(F)cc1)N(Cc1ccc(F)cc1)C(=O)c1ccn[nH]1 (stereo not given)	0.0	0	14	nt	nt	nt	-0.7	-6	5%	nt
4	O=C(Cc1ccc(F)cc1)NC1CCS(=O)(=O)C1 (stereo not given)	1.4	-5	-2	-1	5	-2.3	4.7	-3	-3%	0.6
5	CC[N+]1(CC)CC2=Cc3c(ccc4ccccc34)C(C)C2C1 (stereo not given)	0.6	-14	2	-8	-8	3.5	1.6	-4	-9%	2.2
6	COc1ccccc1C(=O)NNC(=S)NC(=O)c1cccs1	-0.2	15	?	-18	-17	-2.3	4.6	47	nt	2.2
7	O=C1CSC(c2cccc(Cl)c2Cl)N1c1ccccn1 (stereo not given)	0.4	0	-5	-54	-73	-20	-1.5	-28	-3%	1.3
8	O=C(Nc1ccccc1C(=O)Nc1ccc(Br)cn1)c1ccccc1Cl	0.0	4	nt	-3	-15	-0.8	nt	nt	-7%	4.0
9	CCn1cc(S(=O)(=O)Nc2ccc(C)c(Cl)c2)cn1	1.9	0	-7	-2	-4	3.7	-1.1	-3	nt	-7.6
10	COc1ccc(CN=Cc2c(O)[nH]c3ccccc23)cc1	1.2	1	17	-9	-9	-3.2	-3.3	31	-1%	4.1
11	COc1ccc2c(c1)c(C(=O)OCCN(C)C)c(C)n2C	-0.6	1	12	nt	nt	nt	?	-4	-6%	nt
12	N#CCSc1nnc2sc3ccccc3n12	0.8	nt	-8	1	-2	0.2	2.3	-2	1%	-3.0
13	COc1ccc(CN2CCN(CCc3ccccc3)C(CCO)C2)c(O)c1 (stereo not given)	-0.7	-8	-14	18	14	5.6	0.8	-14	-1%	2.3
14	COc1ccc(NC(=O)NNC(=O)CCc2ccc(O)c(O)c2)cc1OC	0.7	-1	-9	7	20	1.7	-1.6	-6	nt	-3.9
15	COc1ccccc1CCN=C(N)NS(=O)(=O)c1cc(F)ccc1F	-2.0	-2	-5	-10	-12	3.5	0.9	0	nt	-1.2

(cont.)
No.	structure	Bfl-1 A1 inh	Beta cell apopt	T cruzi repl	Ecoli rRNA inh	Ecoli rRNA inh OD600	Ecoli rRNA inh RFP	RanGTP-Imp inh	Calb FLC	Vif TR-FRET	MLL AF4-AF9 inh
16	O=C(Oc1cccc(Nc2ncnc3ccccc23)c1)c1cccnc1	0.5	8	0	nt	nt	nt	-4.3	-14	2%	-10
17	CN(C)N1C(N)=C(C#N)C(c2cccs2)C2=C1CCCC2=O (stereo not given)	-0.1	-6	8	19	17	4.2	2.1	4	7%	-0.4
18	O=C(COC(=O)CC(c1ccccc1)c1ccccc1)Nc1ccc(F)c(F)c1	0.8	2	6	nt	nt	nt	5.1	31	5%	nt
19	CC(=O)Nc1ccc(Sc2ccccc2C(=O)O)cn1	0.4	3	-14	6	2	-3.1	-0.3	10	27%	-1.9
20	O=C(NCC1CCCO1)c1ccc([N+](=O)[O-])s1 (stereo not given)	-0.5	2	67*	-4	-1	-0.7	-0.8	7	nt	-2.8
21	COc1ccc(N2CCN(c3ccc(C(=O)O)cc3[N+](=O)[O-])CC2)cc1	-1.1	2	3	3	0	0.0	3.3	-2	8%	4.4
22	Cc1cc(CNC(=O)C2CCC(=O)N(Cc3ccccc3F)C2)nn1C (stereo not given)	0.3	-2	-4	11	12	-3.4	7.6	7	nt	2.6
23	CCCc1c(C)[nH]c2ccccc2c1=O	0.5	-1	-3	nt	nt	nt	-0.2	?	7%	nt
24	CCN(CC(=O)Nc1ccccc1C(F)(F)F)C(=O)C1=COCCO1	0.6	nt	-10	14	19	2.7	-2.9	-10	-2%	-2.3
25	COc1ccc(CN(C(=O)/C=C/C(=O)c2ccc(OC)cc2O)C(C(=O)NC2CCCCC2)c2ccncc2)cc1 (stereo not given)	-0.4	2	8	-1	-12	2.0	1.0	0	2%	8.0
26	Cc1cc(C)n(C(=O)CN2C(=O)CCC2=O)n1	-0.2	-4	1	nt	nt	nt	2.1	-12	-4%	nt
27	Cn1c(SCC(=O)NCc2ccccc2)ncc(C(=O)Nc2ccccc2)c1=O	-5.8	-17	-7	3	8	-1.3	3.6	30	-5%	-1.1
28	CC(C)c1nc2cc(C(=O)N3CCN(c4cnccn4)CC3)ccc2o1	0.0	nt	-3	4	0	-0.9	0.3	-3	-4%	1.8
29	CC(C)c1ccc(C2c3[nH]c4ccccc4c3C[C@H]3C(=O)N(c4ccccc4C(=O)N4CCC[C@@H]4C(=O)O)C(=O)N23)cc1 (stereo not given in full)	-0.1	nt	-2	-1	-3	-4.3	2.5	4	nt	0.6
30	COc1ccccc1N(CC(=O)N/N=C/c1ccc(OCC(=O)NCc2ccco2)cc1)S(=O)(=O)c1ccc(C)cc1	0.4	8	30	nt	nt	nt	1.8	-3	-1%	nt

(further entries)
No.	structure	Bfl-1 A1 inh	Beta cell apopt	T cruzi repl	Ecoli rRNA inh	Ecoli rRNA inh OD600	Ecoli rRNA inh RFP	RanGTP-Imp inh	Calb FLC	Vif TR-FRET	MLL AF4-AF9 inh
31	Cc1ccc(NC(=O)N2CCCN(C(=O)OC(C)(C)C)CC2)cc1Cl	0.7	1	1	-3	-5	1.5	5.0	16	-3%	-1.4
32	CCOC(=O)N1CCN(S(=O)(=O)c2ccc(OCC(=O)OC)c(Cl)c2)CC1	-0.4	-7	-30	8	7	-0.4	6.5	-9	-1%	-1.8
33	CCOC(=O)c1cn(-c2ccc(F)c(F)c2)c2c(F)c(F)c(F)c(F)c2c1=O	nt	nt	49	nt	nt	nt	-2.0	-15	0%	nt
34	COc1ccc(F)cc1C(=O)C1CCCN(C(=O)c2cccc(N(C)C)c2)C1 (stereo not given)	-0.4	0	15	-2	-9	0.9	1.9	23	nt	8.3
35	COc1ccc(Cl)cc1NC(=O)CN(C)C(=O)c1ccc(OCc2ccccc2)c(OC)c1	-0.7	nt	22	-5	-31	-1.2	-2.1	12	-6%	?
36	CC(C)(C)OC(=O)N1Cc2ccccc2C[C@H]1C(=O)NCC(=O)NC1CCCCC1	0.0	-5	15	5	7	-1.9	0.0	-5	5%	0.6
37	C=CCn1c(SCC(=O)NC2CCCC2)nnc1-c1cccnc1	0.8	nt	1	8	-7	3.0	-0.9	-9	1%	1.2
38	COCCN1Cc2cccc(C(=O)Nc3ccc4c(c3)OCCO4)c2C1=O	-1.5	-3	2	-15	-17	-5.5	-4.7	-1	2%	-0.4
39	O=C(NS(=O)(=O)N1CCOCC1)C1=C(N2CCCC2)COC1=O	-0.4	5	nt	13	6	12	nt	nt	nt	-2.1
40	Cc1ccc2c(C)c(C(=O)N(Cc3ccc(F)cc3)C3CCS(=O)(=O)C3)oc2c1 (stereo not given)	-0.2	nt	23	1	-31	4.2	4.6	-6	nt	2.2
41	Cc1cccc(NC(=O)CSc2nc3ccc(N4C(=O)c5ccccc5C4=O)cc3s2)c1C	1.6	-3	-3	nt	nt	nt	2.6	-1	-4%	nt
42	Nc1nnc2c(n1)CCCC2	0.9	-10	-5	nt	nt	nt	-8.1	-15	?	nt
43	CCN(CC)C(C(=O)Nc1ccc(C(C)C)cc1)c1ccc2c(c1)OCO2 (stereo not given)	0.0	-2	35	nt	nt	nt	-1.4	3	2%	nt
44	CCc1ccc(OCC(=O)NC(=S)Nc2cccc(CO)c2)c(Br)c1	0.0	nt	-2	nt	nt	nt	3.0	-3	-5%	nt
45	O=C(Nc1cccc(S(=O)(=O)NC2=NCCC2)c1)c1ccccc1OC(F)F	0.3	-3	4	1	0	-3.8	-2.5	-3	-5%	-4.2

Additional results follow.
No.	structure	Bfl-1 A1 inh	Beta cell apopt	T cruzi repl	Ecoli rRNA inh	Ecoli rRNA inh OD600	Ecoli rRNA inh RFP	RanGTP-Imp inh	Calb FLC	Vif TR-FRET	MLL AF4-AF9 inh
46	CC(C)C(NC(=O)CCNC(=O)c1ccccc1Cl)c1nc2ccccc2[nH]1 (stereo not given)	0.8	-1	nt	6	3	0.2	nt	nt	nt	0.8
47	COCC(=O)N(CCc1ccc(OC)c(OC)c1)Cc1nc2ccccc2c(=O)[nH]1	-0.5	-6	9	nt	nt	nt	-5.7	1	1%	nt
48	Cc1ccc(Cn2c(=O)cc(C(=O)O)c3ccccc32)cc1	-0.7	-2	3	4	-2	-5.6	6.8	0	-2%	-14
49	CCOC(=O)c1ccc(NC(=O)CSc2nnc(Cc3cccs3)n2C)cc1	-1.0	0	-9	-7	-11	-1.1	2.3	-6	76%	nt
50	CCCOc1ccc(CN(CCO)CCO)cc1[N+](=O)[O-]	0.0	3	26	2	3	-1.2	nt	nt	nt	-2.7
51	CC(=O)N1c2ccc(S(=O)(=O)N3CCC(C(=O)Nc4cccc(C(F)(F)F)c4)CC3)cc2CC1C (stereo not given)	0.4	49	33	-23	-24	-6.7	2.4	14	-4%	-4.5
52	COc1ccc(OC)c(CCNC(=O)CCCC(=O)n2ncc3cc(C)ccc32)c1	-0.4	-1	19	-5	-11	2.0	?	-1	nt	-11
53	CCOc1ccc(N(CC(=O)NC2CCCCC2)C(=O)CCC(=O)Nc2nc(C)cs2)cc1	0.5	-4	8	5	15	-1.7	1.7	-18	nt	-0.7
54	CC(C)c1ccc(NC(=O)C(c2ccc3c(c2)OCO3)N2CCC3(CC2)OCCO3)cc1 (stereo not given)	1.5	7	-4	nt	nt	nt	0.0	-3	15%	nt
55	Cc1ccccc1-n1nnnc1SCCCC(=O)c1ccc(F)cc1	-0.1	-5	-2	-23*	-14*	-2.4*	3.0	?	nt	1.9
56	CCOC(=O)c1sc(-c2cccc([N+](=O)[O-])c2)cc1N	-0.1	-7	4	27	21	4.8	-3.1	1	20%	0.5

An excerpt (hit frequency here may not be typical).
